Bioassay records deposited in PubChem by several laboratories.
FGF22 binding: FGF22 (human) thermal shift binding; Q9HCT0; recombinant FGF22 thermal shift, SYPRO orange fluorescence; percent of sucrose octasulfate shift, DMSO zero; calls only at 9.99 µM; 340,000 tested, 1.5% active; AID 651658;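 active means melting point raised past a set limit in the mean and every replicate; three in four hits are not shown here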
Target sequence (Q9HCT0 whole entry, looked up): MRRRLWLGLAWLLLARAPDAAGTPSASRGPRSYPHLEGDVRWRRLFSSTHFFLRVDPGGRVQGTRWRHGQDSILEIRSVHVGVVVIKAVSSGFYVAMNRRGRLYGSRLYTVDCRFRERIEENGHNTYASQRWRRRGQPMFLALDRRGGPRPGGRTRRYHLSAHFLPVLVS
Bfl-1 A1 inh: inhibitors of the anti-apoptotic protein A1, read as caspase activation | 330,000 tested, 0.066% active | caspase activation, % (no concentration beside the values) | AID 2462 | MEF A1-2A-BIM cells, Caspase-Glo 3/7 luminescence, 3 h; percent of clofoctol response, vehicle zero;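 active means over half of replicate activation scores above 10%, or exactly half above 10 with the replicate mean above 10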;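 further: wells of about 30 µL received 50 nL stock; many hits fall short of the cut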
rRNA inh HTS: inhibits bacterial ribosomal RNA function over humanized ribosomes; E. coli WT GFP vs humanized-ribosome RFP mutants, fluorescence, 24 h; hits give low values; DMSO median 0, no signal -100; GFP signal change (wild-type ribosome), % (no concentration beside the values); 350,000 tested, 1.6% active;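 active means significant combined selectivity score with lowered wild-type GFP, culture density cut under 30%, mutant RFP and density less affected; inactive means any of these conditions unmet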; further: one replicate is shown; some compounds called inactive have numbers as strong as hits
UCH37 inh: blocks the human deubiquitinase UCH37 | Q9Y5K5 | purified proteasome/UCH37, Ub-AMC cleavage fluorescence | inhibition, % (test concentration not listed) | 330,000 tested, 0.33% active;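 active means mean of two replicates above 20%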;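 further: 0% = compound-free wells with enzyme and 100% = wells lacking proteasome; stock transfer was 100 nL into about 20 µL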
Target sequence (Q9Y5K5 whole entry, looked up): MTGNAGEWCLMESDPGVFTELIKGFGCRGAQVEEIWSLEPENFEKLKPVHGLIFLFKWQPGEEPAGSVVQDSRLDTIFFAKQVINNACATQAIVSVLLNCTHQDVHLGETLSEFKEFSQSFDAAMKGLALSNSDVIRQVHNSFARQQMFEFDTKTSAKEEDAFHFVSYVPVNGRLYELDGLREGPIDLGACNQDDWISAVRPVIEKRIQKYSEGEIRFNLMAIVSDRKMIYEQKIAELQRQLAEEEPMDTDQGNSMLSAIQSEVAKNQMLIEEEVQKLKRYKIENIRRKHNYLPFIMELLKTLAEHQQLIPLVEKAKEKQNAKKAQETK
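Schedule: 30 min plus 25 min, room temperature / Material: human UCH37 within purified proteasomes / Technique: AMC fluorescence intensity at 355/460 nm / Buffer or medium: pH 7.4 Tris-HCl (50 mM) with ovalbumin, ATP-MgCl2, DTT / Controls: wells without proteasome as full block, compound-free enzyme plus substrate as uninhibited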
Beta cell apopt: beta cell apoptosis inhibition; INS-1E cytokine-induced death, ATP luminescence, 48 h; percent of positive-control rescue, neutral wells zero; protection from apoptosis, % (concentration not given with the values); 300,000 tested, 0.8% active;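 active means all replicates at 75% or more, or half of them and the mean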;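 further: 0% = cytokine-treated negative control wells and 100% = positive control rescue; higher means more ATP so stronger rescue from cytokine killing; wells of about 40 µL received 100 nL stock; the first replicate is given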
Ecoli growth: E. coli growth inhibition; Escherichia coli growth, OD600, 23 h; hits give low values; OD600 absorbance (concentration not given with the values); 330,000 tested, 0.21% active; AID 1053175;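 active means OD600 absorbance below the run mean of sample wells minus 3.6 SD, in any replicate, cut at about 0.56 in these data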;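 further: stock transfer was 300 nL into about 60 µL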
T cruzi repl: blocks replication of Trypanosoma cruzi; T. cruzi beta-gal in NIH3T3, luminescence, 90 h; inhibition, % (no concentration beside the values); 300,000 tested, 1.4% active; AID 1885;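 active means mean inhibition across valid replicates above about 55%, limit read from the data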;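 further: signal also drops with host cell toxicity which is not excluded here; 0% = plate median of DMSO wells and 100% = zero luminescence signal; higher percent means less beta-gal luminescence so fewer parasites; stock transfer was 50 nL into about 50 µL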
AF4-AF9 inh: inhibitors of human MLL-AF4/AF9 interaction. P42568. inhibition, % at 10 µM. AID 651704. 350,000 tested, 0.47% active. AlphaScreen, biotin-AF4 peptide binding to FLAG-AF9;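 active means every replicate reaching a set inhibition limit, whatever the replicate mean, cut at about 25% in these data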;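 further: 0% = plate neutral control median and 100% = total signal loss; the record names both 10 and 1 µM as test concentration; the first replicate is given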
Target sequence (P42568 whole entry, looked up): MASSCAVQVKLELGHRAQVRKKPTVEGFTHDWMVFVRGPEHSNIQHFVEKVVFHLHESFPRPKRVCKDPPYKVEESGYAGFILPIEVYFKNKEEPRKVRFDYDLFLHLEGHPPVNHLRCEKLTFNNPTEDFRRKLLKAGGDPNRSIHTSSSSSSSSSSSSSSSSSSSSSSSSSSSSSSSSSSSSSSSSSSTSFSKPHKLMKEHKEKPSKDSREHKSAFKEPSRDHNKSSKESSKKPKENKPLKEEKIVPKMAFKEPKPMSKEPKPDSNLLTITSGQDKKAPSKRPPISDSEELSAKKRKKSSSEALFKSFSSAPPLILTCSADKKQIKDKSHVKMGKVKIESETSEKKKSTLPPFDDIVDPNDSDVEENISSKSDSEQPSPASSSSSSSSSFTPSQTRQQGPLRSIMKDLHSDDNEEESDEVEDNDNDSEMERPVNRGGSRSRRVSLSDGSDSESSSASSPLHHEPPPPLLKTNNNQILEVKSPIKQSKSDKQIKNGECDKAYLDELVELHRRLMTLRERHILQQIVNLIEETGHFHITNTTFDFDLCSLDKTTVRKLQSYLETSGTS
rRNA inh HTS OD600: second read-out of rRNA inh HTS, no call of its own (marks repeat the call); OD600 change, %; measured here: OD600 growth;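 optical density of the mix in the first replicate; 0 = DMSO median and -100 = no signal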
rRNA inh HTS RFP: recorded beside rRNA inh HTS, whose call it bears; RFP signal change, %; measured here: RFP humanized mutant strains;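 first replicate; 0 = DMSO median and -100 = no signal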
* = called active by the depositor; i = inactive; . = not tested or not shown. A portion of the library; the hit share may differ from the screen's.

SMILES	FGF22 binding	Bfl-1 A1 inh	rRNA inh HTS	rRNA inh HTS OD600	rRNA inh HTS RFP	UCH37 inh	Beta cell apopt	Ecoli growth	T cruzi repl	AF4-AF9 inh
CCOc1ccccc1/C=C(/NC(=O)c1ccccc1)C(=O)NC(C)c1ccccc1 (stereo not given)	.	0.3	.	.	.	1.5	1	0.65	-9	.
O=C(CSc1ncn[nH]1)N1CCN(S(=O)(=O)c2ccc(Cl)cc2)CC1	.	0.2	.	.	.	2.0	-6	0.66	-6	.
Brc1cnc(OCc2ccccc2)nc1OCc1ccccc1	i	.	-7	1	1.3	4.0	.	0.68	.	-3.1
COc1ccc(C(C)(C)C)cc1NC(=O)CNc1cccc2ccccc12	.	0.1	.	.	.	-108	9	0.68	31	.
CC[C@]12C(=O)N(C)C[C@H]([C@@H]3C(=O)N(C)C(=O)[C@@H]31)N2C(=O)c1ccc(Cl)cc1	i	.	11	17	-3.4	3.9	.	.	.	-1.3
C=CCNC(=S)/C(=C(\[O-])c1ccc(Cl)cc1)[n+]1ccccc1	i	-0.6	6	4	-2.2	3.0	-1	0.7	-10	-4.3
CCCCCCCNC(=O)C1(CC2CC(c3ccc(Cl)cc3)=NO2)CCNCC1 (stereo not given)	i	0.2	5	12	10	2.4	.	0.54	27	9.9
CCN(CC)P(=O)(Nc1ccc(SC(F)F)cc1)c1ccc(N(C)C)cc1NC(=O)c1ccco1 (stereo not given)	i	-0.8	6	8	18	-1.8	11	0.73	68*	4.9
COc1ccc(-c2cc(-c3ccc(O)cc3)nc(N)c2C#N)cc1OC	i	0.5	-16	-24	-1.7	-182	-3	0.66	-8	-1.0
CCOc1cc(C2C3=C(CC(C)(C)CC3=O)Nc3n[nH]c(C)c32)ccc1O (stereo not given)	i	-0.1	6	-1	0.4	-0.2	-9	0.68	-20	0.3
CN(C)CC(C)(C)NS(=O)(=O)c1ccc(Cl)cc1	i	0.2	-6	4	-8.6	1.1	.	0.7	-7	-2.7
CC(C)CNC(=O)c1ccccc1Oc1ccccc1	.	-0.7	.	.	.	2.0	0	0.75	-3	.
Cc1cc(C)c(OCCN2CCOCC2)c(Cl)c1	i	-0.1	2	2	-3.1	1.2	.	0.63	-1	1.7
COc1cc(OC)cc(C(=O)NCCCN2CCN(CCCNC(=O)c3cc(OC)cc(OC)c3)CC2)c1	.	1.1	.	.	.	-19	-5	0.71	-7	.
O=C(NCCCSc1ccccc1)c1cnc(Cl)c(Cl)c1	i	-1.1	-14	-36	-1.6	5.3	-1	0.68	1	-1.3
O=C1CC(C(=O)N2CCCc3ccccc32)CN1c1ccc(F)cc1 (stereo not given)	i	0.8	10	10	1.7	5.3	-5	0.7	-2	7.0
CCc1cc(C(=O)OC)c(NC(=O)CC2NCCNC2=O)s1 (stereo not given)	.	0.2	.	.	.	0.3	-3	0.67	-6	.
CCOc1ccc(-n2c(SC)nc3c(c2=O)SCC3)cc1	.	-0.2	.	.	.	4.1	-5	0.7	8	.
CCOc1ccc(S(=O)(=O)NCCC(=O)NCc2cccnc2)cc1	i	0.8	9	6	-0.1	1.7	0	0.69	-21	-1.7
CCSc1nnc(NC(=O)CSc2nnc(Cc3cccn3C)n2CCc2ccccc2)s1	.	-0.8	.	.	.	5.1	.	0.73	11	.
CC1=C(C(=O)N2CCCC(CCC(=O)NCc3ccc(F)c(F)c3)C2)OCCO1 (stereo not given)	i	-0.3	4	6	-3.9	6.1	0	0.71	-14	1.1
O=C1C(=O)N(CNc2cccnc2)c2ccccc21	.	0.0	.	.	.	0.6	-5	0.64	-25	.
COc1cc(C2c3c(-c4ccccc4)n[nH]c3C(=O)N2c2ccc(C(=O)O)cc2)ccc1O (stereo not given)	.	0.2	.	.	.	7.6	.	0.74	-5	.
O=C1c2ccccc2C(=O)c2c1cccc2N1CCN(CCO)CC1	i	0.2	-6	-13	12	7.1	12	0.71	33	-33
Cc1ccc(CC(=O)O/N=C(\N)c2ccncc2)cc1	i	0.3	-14	-10	-2.3	-0.1	-5	0.68	-5	0.2

A run of entries taken from the entries so far, as a working copy:
SMILES	FGF22 binding	Bfl-1 A1 inh	rRNA inh HTS	rRNA inh HTS OD600	rRNA inh HTS RFP	UCH37 inh	Beta cell apopt	Ecoli growth	T cruzi repl	AF4-AF9 inh
CCOc1ccccc1/C=C(/NC(=O)c1ccccc1)C(=O)NC(C)c1ccccc1 (stereo not given)	.	0.3	.	.	.	1.5	1	0.65	-9	.
O=C(CSc1ncn[nH]1)N1CCN(S(=O)(=O)c2ccc(Cl)cc2)CC1	.	0.2	.	.	.	2.0	-6	0.66	-6	.
Brc1cnc(OCc2ccccc2)nc1OCc1ccccc1	i	.	-7	1	1.3	4.0	.	0.68	.	-3.1

(more compounds)
SMILES	FGF22 binding	Bfl-1 A1 inh	rRNA inh HTS	rRNA inh HTS OD600	rRNA inh HTS RFP	UCH37 inh	Beta cell apopt	Ecoli growth	T cruzi repl	AF4-AF9 inh
COc1ccc(C(C)=O)cc1COc1cccc2c1OC(C)(C)C2	i	-2.3	-8	-2	2.7	4.0	3	0.73	4	0.9
COCCSc1ccccc1C(=O)N1CCc2ccccc21	i	0.8	-3	-7	-2.5	1.6	-8	0.63	6	2.9
COc1ccc(F)cc1S(=O)(=O)Nc1cc2c3c(c1)CCN3C(=O)CC2	i	-0.5	0	10	-0.4	1.8	1	0.66	-4	-20
O=C(Nc1ccc(C(F)(F)F)cc1)c1cc(S(=O)(=O)NCC2COc3ccccc3O2)ccc1F (stereo not given)	i	0.6	-14	-8	6.1	0.9	14	0.64	45	0.7
COC(=O)[C@]1(Cc2ccccc2)N[C@H](CN(C)S(=O)(=O)c2ccc(OC(F)(F)F)cc2)[C@@H]2C(=O)N(C)C(=O)[C@@H]21	i	0.7	-13	-7	-2.2	0.9	-4	0.68	.	0.5
CCCN(CCC)C(=O)CSc1nc2n[nH]c(C)c2c(=N)n1-c1ccc(OC)cc1	.	-0.3	.	.	.	.	26	0.68	8	.
CCOc1ccc2[nH]c3c(=O)n(CCC4=CCCCC4)cnc3c2c1	i	-0.2	4	13	4.0	-56	-6	0.7	0	-15
COc1ccccc1NC(=O)COC(=O)c1cnccn1	.	-0.4	.	.	.	2.2	-10	0.67	-8	.
COc1ccc(/C=C/C(=O)Nc2ccccc2C(N)=O)cc1S(=O)(=O)N1CCOCC1	i	.	-10	-10	-1.0	-2.0	.	0.62	.	8.2
CNc1ccc(Br)cc(C(=O)/C=C/c2ccc(Cl)cc2Cl)c1=O	i	0.5	-37	-55	-6.9	7.4	-1	0.69	-9	1.2
COc1ccccc1NC(=O)C1CCN(S(=O)(=O)c2ccc3c(c2)NC(=O)C(C)S3)CC1 (stereo not given)	i	0.5	-18	-16	4.2	4.1	8	0.71	15	1.9
CCCNC(=O)c1nc(C)n(-c2cc(Cl)cc(Cl)c2)n1	i	0.0	-6	-2	-1.1	3.9	1	0.68	5	-1.0
O=C(NN=Cc1c(F)cccc1F)c1ccccc1NS(=O)(=O)c1cccs1	i	0.1	.	.	.	4.7	-1	0.66	.	-1.5
Cc1noc(C)c1COC(=O)c1ccc2c(c1)OCCO2	.	0.0	-3	-18	-9.9	-0.3	-11	0.67	.	.
Cc1cc(NC(=O)CN(C)S(=O)(=O)c2cnc[nH]2)ccc1Br	i	0.1	-4	2	-2.5	0.4	-5	0.7	-19	0.3
O=C(Nc1ccc(Br)cc1)C1CCC(=O)N1Cc1ccccc1Cl (stereo not given)	.	-0.3	.	.	.	0.6	0	0.7	-14	.
CCOC(=O)CNC(=S)N1CCn2c(nc3ccccc32)C1	i	-0.7	-7	-14	-0.5	-0.1	-5	0.66	12	-5.6
COc1cc(CC(=O)OCC(=O)NCc2cccs2)cc(OC)c1OC	i	1.1	3	-3	-5.5	0.1	-3	0.67	.	-1.3
CCN(CC)S(=O)(=O)c1ccc2c(c1)nc(CCC(=O)OCC(=O)Nc1c(F)cccc1F)n2C	i	0.0	-4	-2	-5.6	0.2	-4	0.66	-9	-2.1
COC(=O)c1cccc(F)c1C(=O)c1cccc2ccccc12	i	.	-32	-41	-5.6	1.1	.	0.66	.	-1.1
O=C(NCc1ccc2c(c1)OCO2)c1ccc(CSCc2ccccc2Cl)o1	.	0.2	.	.	.	0.1	-4	0.7	-6	.
COc1ccccc1CNCC(O)(c1ccc(F)cc1)c1ccc(F)cc1	i	0.6	-4	-17	0.2	1.8	14	0.62	31	-18
CCC(C)[C@H]1CNC(=S)N1CCc1cc(C(F)(F)F)cc(C(F)(F)F)c1 (stereo not given in full)	i	-0.4	1	-14	11	4.2	-1	.	16	-9.7
Cc1csc(NC(=O)CSc2nnc(-c3ccco3)n2C)n1	.	0.5	.	.	.	1.3	-6	0.64	-5	.
CC(=O)Nc1ccc(N2C(=O)CC(N3CC(C)OC(C)C3)C2=O)cc1 (stereo not given)	.	0.0	2	13	-1.3	-5.5	1	0.71	-7	.

More records
SMILES	FGF22 binding	Bfl-1 A1 inh	rRNA inh HTS	rRNA inh HTS OD600	rRNA inh HTS RFP	UCH37 inh	Beta cell apopt	Ecoli growth	T cruzi repl	AF4-AF9 inh
OCC[C@@H]1C[C@H](O)[C@@H](O)[C@]2(Cc3ccccc3O2)O1	.	0.5	.	.	.	2.1	-8	.	-9	.
Cc1c(Cl)cccc1N/C(=N/S(=O)(=O)c1cccs1)c1ccccc1	i	0.4	-44	-69	-2.8	1.9	2	0.66	4	-2.5
CC(=O)N1Cc2ccccc2C(C)CC12CCCCC2 (stereo not given)	i	0.5	-36	-60	-8.5	-1.6	-2	0.67	-10	0.4
COc1ccc(-c2[nH]ncc2/C=C(/C#N)C(=O)NC2CCCCC2)cc1	.	0.0	.	.	.	-7.2	6	0.7	1	.
COc1ccc(S(=O)(=O)N(C)C[C@H]2Oc3c(NC(=O)Nc4ccc(C(F)(F)F)cc4)cccc3C(=O)N([C@H](C)CO)C[C@@H]2C)cc1	i	0.3	-5	-1	-2.0	5.1	13	.	.	0.2
COc1cccc(Nc2nc(N)c([N+](=O)[O-])c(N3CCOCC3)n2)c1	i	0.1	-29*	-6.0*	7.5*	11	-1	0.67	13	6.5
Cc1cccc(OCc2nnc(SCC(=O)N3CCc4ccccc43)n2C)c1	.	-0.5	.	.	.	0.2	3	0.73	14	.
CN(Cc1ccco1)C(=O)C(Cc1ccccc1)NS(=O)(=O)c1ccc2c(c1)CCC(=O)N2 (stereo not given)	i	0.1	5	-2	-8.8	2.0	-14	0.73	-2	-11
COc1cccc(CN2CCNC(=O)C2CC(=O)NCCCN2CCCC2=O)c1 (stereo not given)	i	-0.4	0	3	-1.6	-0.5	7	0.64	-5	-5.2
Cc1ccc(-n2c(SCC(N)=O)nc3c(oc4ccccc43)c2=O)cc1	i	-1.3	-1	8	0.0	2.3	2	0.73	8	-6.7
CC(=O)Nc1ccc(NS(=O)(=O)c2cc(-c3cnc(C4CC4)o3)ccc2C)cc1	i	0.6	-12	-13	4.2	3.6	9	0.71	12	-8.3
Cc1ccnc(NC(=O)CCC2CCCCC2)c1	.	-2.5	.	.	.	0.6	-23	0.74	-12	.
O=C(O)COC(=O)C1C(c2ccccc2)C(C(=O)O)C1c1ccccc1 (stereo not given)	i	0.4	11	9	1.4	2.6	-4	0.69	-3	-0.3
CC12C=CC3(CN(Cc4ccccc4)C(=O)C3C1C(=O)NCc1ccco1)O2 (stereo not given)	.	0.0	.	.	.	3.6	-5	0.75	-6	.
